MT1-MMP act inh = blockers of MT1-MMP proenzyme processing, primary screen, HT1080 RFP-PRO-GFP cells, GFP/RFP fluorescence; hit rate 0.061% among 360,000; GFP/RFP ratio fluorescence, overnight; percent of plate control window, DMSO zero; GFP/RFP ratio change, % at 20 µM;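 active = GFP/RFP ratio change of at least 30% with cell ATP level not reduced by more than half and red fluorescence within 50% of control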; note: strong numbers were not always called active
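Material: RFP-PRO-GFP reporter HT1080 cells. Dosing: single-point 20 µM compound, 1% DMSO. Controls: DMSO and RFP-L50D-GFP cell wells. Timing: cells overnight before dosing, compound overnight, 37 °C, 5% CO2. Measure: GFP/RFP fluorescence ratio.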
PABP polyA inh = PABP poly(A) RNA binding inhibitors, primary screen, biochemical, fluorescence polarization, uHTS. inhibition, % at 35 µM. hit rate 1% among 290,000. AID 2014, 2009;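 active = 50% or more with normal probe brightness, or confirmed in later tests; about a fifth of its hits are not listed in these tables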;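 note: calls also rest on retests at 20 µM and on dose response follow-up; controls were probe without protein and protein plus probe with vehicle; some compounds called inactive have numbers as strong as hits; many hits fall short of the cut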
Rce1 inh = yeast Rce1p protease inhibitors, primary screen, biochemical, fluorescence, cell-free homogeneous | calls only | hit rate 0.27% among 290,000 | AID 2563, 2010 | yeast membranes, quenched prenylated peptide cleavage fluorescence;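 active = fall in fluorescence gain of 50% or more versus controls, with final raw signal at or below 3038400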;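 note: plate controls were neutral control wells for no effect and wells lacking membranes for full effect; tested at 10 µM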
Target sequence (Q03530 whole entry, looked up): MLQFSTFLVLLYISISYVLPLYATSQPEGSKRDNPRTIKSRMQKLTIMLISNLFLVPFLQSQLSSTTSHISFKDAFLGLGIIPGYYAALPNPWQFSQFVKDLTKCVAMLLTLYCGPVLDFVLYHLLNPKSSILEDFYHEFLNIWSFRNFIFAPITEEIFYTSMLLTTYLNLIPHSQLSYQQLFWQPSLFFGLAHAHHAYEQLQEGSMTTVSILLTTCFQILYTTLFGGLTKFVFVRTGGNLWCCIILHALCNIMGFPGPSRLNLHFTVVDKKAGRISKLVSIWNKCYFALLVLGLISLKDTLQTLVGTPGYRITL
Env fusion inh = inhibitors of HIV-1 Env-driven cell-cell fusion, primary screen, HeLa-JRFL effector, CEM21 target cells, luciferase; inhibition, % at 12.3 µM; hit rate 1.1% among 360,000;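 active = mean replicate inhibition score of at least 50 and every replicate individually at or above 50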;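 note: 0% = plate neutral controls and 100% = maraviroc near 300 nM; one replicate is shown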
Yeast UUG start = modulators of yeast start codon fidelity, primary screen, whole organism, S. cerevisiae, single point, plate reader; S. cerevisiae UUG-firefly luciferase reporter, luminescence/redox ratio; activity score, % at 18.7 µM; AID 602363, 2012; hit rate 0.13% among 350,000;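 active = replicate mean at a twofold rise or more, about +100% in these data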;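 note: firefly luciferase made from a UUG start codon reports start codon fidelity; reporter light over untreated wells divided by growth signal over untreated wells; some hits fall short of that in this replicate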
eIF4H FP inh = human eIF4H binding inhibitors, primary screen, translation initiation inhibitor project, biochemical, uHTS, fluorescence polarization. Eukaryotic translation initiation factor 4H (Homo sapiens), Q15056. inhibition, % at 35 µM. eIF4H fluorescence polarization binding assay. AID 2012, 2009. hit rate 0.94% among 290,000;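 active = 50% or more with normal probe brightness, or confirmed in later tests; about a fifth of its hits are not listed in these tables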;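 note: calls also rest on retests at 20 µM and on dose response follow-up; 0% = protein and probe with vehicle and 100% = probe without protein; strong numbers were not always called active; many hits fall short of the cut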
CSC inhib = cancer stem cell viability inhibitors, primary screen, luminescence | cancer stem cell-like cells viability | inhibition, % at 7.5 µM | hit rate 1.1% among 300,000 | AID 2717, 2010;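 active = mean at 75% or more and at least half the replicates too; tested in HMLE shEcad cells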;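 note: 0% = median of negative and 100% = median of positive control wells; the first replicate is given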
MT1-MMP act inh RFP = second read-out of MT1-MMP act inh, no call of its own (marks repeat the call); RFP signal change, %; measured here: RFP expression control read;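 0 = vehicle wells; hits needed this value within 50% of zero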
* marks the source's active call; other numbers are inactive results; i = inactive; . = no result given.

Short forms: A = MT1-MMP act inh; B = MT1-MMP act inh RFP; C = PABP polyA inh; D = Rce1 inh; E = Env fusion inh; F = Yeast UUG start; G = eIF4H FP inh; H = CSC inhib
smiles: O=C(O)c1cccc2c1/C(=N/O)c1ccccc1-2
  A: 3.2	B: 4.5	C: .	D: i	E: -16.5	F: -7.9	G: .	H: .
smiles: N/C(=N/OC(=O)c1ccc(Cl)cc1)c1ncc([N+](=O)[O-])s1
  A: 2.5	B: -5.2	C: -13.9	D: i	E: -22.9	F: 0.6	G: -5.6	H: -3.1
smiles: CC(=O)Nc1cccc(C(=O)OCCCOc2ccc(F)cc2)c1
  A: 3.1	B: -1.6	C: 0.2	D: i	E: -5.2	F: -6.3	G: -9.7	H: -1.7
smiles: Cc1ccc(NC(=O)CSc2nc(O)cc(=O)n2-c2ccc(C)cc2)cc1
  A: -2.3	B: 1.9	C: .	D: i	E: 4.3	F: -12.0	G: .	H: 13.3
smiles: CC(C)(C)c1nc(Sc2ccc([N+](=O)[O-])cn2)n[nH]1
  A: 1.9	B: -1.1	C: 9.3	D: i	E: 3.7	F: .	G: 6.2	H: -12.9
smiles: CC1(C(=O)Nc2ccc(S(=O)(=O)Nc3ncccn3)cc2)CCCC1
  A: 2.8	B: 3.3	C: .	D: .	E: -14.6	F: -1.3	G: .	H: -11.9
smiles: Cn1c(/C(C#N)=C/c2ccc(O)cc2)nc2ccccc21
  A: -4.9	B: -0.2	C: 1.4	D: i	E: -69.2	F: -14.3	G: -0.3	H: 7.3
smiles: O=C(NNC(=O)c1cccs1)Nc1cccc(Cl)c1
  A: 0.3	B: 4.6	C: 7.4	D: i	E: -11.4	F: -7.8	G: 4.0	H: -3.8
smiles: Cc1nn(S(=O)(=O)c2ccc([N+](=O)[O-])cc2)c(C)c1Sc1ccccc1
  A: -2.9	B: -4.7	C: .	D: i	E: -46.9	F: -15.9	G: .	H: 4.2
smiles: Fc1ccccc1N1CCN(c2nc3ccccc3n3nnnc23)CC1
  A: -7.8	B: 0.0	C: -5.5	D: i	E: .	F: 1.3	G: 45.0	H: 14.2
smiles: COc1cccc(C2c3c(oc4ccc(F)cc4c3=O)C(=O)N2CCN2CCOCC2)c1OC (stereo not given)
  A: 2.7	B: 1.1	C: 11.5	D: i	E: -4.1	F: 6.1	G: -5.9	H: 1.0
smiles: Cn1c(SCC(=O)Nc2ccccc2F)nnc1-c1cccnc1
  A: -1.4	B: 2.4	C: -5.5	D: i	E: 0.8	F: -9.8	G: -6.8	H: .
smiles: O=c1c2[nH]c3ccc(Cl)cc3c2ncn1CCN1CCCCC1
  A: 9.9	B: 8.2	C: -6.3	D: .	E: .	F: .	G: -2.6	H: 10.4
smiles: COc1cc(/C=N/NC(=O)c2cc(-c3cccn3C)n[nH]2)cc(OC)c1OC
  A: 19.9	B: 14.1	C: 11.0	D: i	E: i	F: -0.7	G: -7.3	H: -6.0
smiles: CCOC(=O)/C(=N\Nc1ccccc1Cl)N1CCN(Cc2ccccc2)CC1
  A: -6.6	B: -8.2	C: -1.4	D: i	E: .	F: .	G: -4.4	H: -6.6

Look-ups from the entries so far:
O=c1c2[nH]c3ccc(Cl)cc3c2ncn1CCN1CCCCC1 | MT1-MMP act inh = 9.9
CCOC(=O)/C(=N\Nc1ccccc1Cl)N1CCN(Cc2ccccc2)CC1 | MT1-MMP act inh = -6.6

The list continues:
Short forms: A = MT1-MMP act inh; B = MT1-MMP act inh RFP; C = PABP polyA inh; D = Rce1 inh; E = Env fusion inh; F = Yeast UUG start; G = eIF4H FP inh; H = CSC inhib
smiles: COc1ccc(Cc2nc(-c3ccc(Br)o3)no2)cc1OC
  A: 2.1	B: -5.0	C: -3.3	D: i	E: -1.0	F: 3.9	G: -8.6	H: 4.5
smiles: Cc1ccccc1OCC(=O)N=Nc1c(O)n(C)c2ccccc12
  A: 2.6	B: 1.5	C: 7.3	D: i	E: -5.1	F: .	G: 5.8	H: 29.8
smiles: CCn1cc(S(=O)(=O)NCCc2ccccc2OC)cn1
  A: .	B: .	C: 0.4	D: i	E: 4.5	F: -0.2	G: 4.3	H: 9.5
smiles: CCCCC(NC(=O)c1cccc(Br)c1)C(=O)O (stereo not given)
  A: 4.5	B: 5.5	C: 10.6	D: i	E: 10.1	F: .	G: -6.1	H: -7.5
smiles: COC(=O)[C@@]12CCCCN1[C@H](c1ccc(-c3ccc(F)cc3)cc1)[C@@H]1C(=O)N(C)C(=O)[C@@H]12
  A: 5.7	B: -2.7	C: .	D: i	E: -12.3	F: -2.4	G: .	H: 26.5
smiles: CCOC(=O)N1CCC(N2CCN(S(=O)(=O)c3ccc([N+](=O)[O-])cc3)CC2)CC1
  A: 2.9	B: -10.9	C: 3.8	D: i	E: 5.7	F: -5.4	G: -1.0	H: -9.1
smiles: COc1ccc(-n2c(SCC(N)=O)nnc2-c2cccnc2)cc1
  A: 0.4	B: 6.8	C: -6.5	D: i	E: 9.3	F: -23.9	G: -0.9	H: -11.6
smiles: COc1ccc(C2=C(C#N)C(=O)OC2)cc1
  A: 0.9	B: 5.1	C: -4.6	D: i	E: -13.9	F: -6.8	G: -4.5	H: -16.1
smiles: O=C(/C=C/c1ccc(OCCCF)cc1)N1CCN(Cc2ccccc2)CC1
  A: -0.5	B: -4.1	C: 7.2	D: i	E: 4.1	F: -30.4	G: 2.4	H: 17.7
smiles: COC(=O)c1cc2oc(C)cc2n1CC(=O)N(C)c1ccccc1
  A: 1.9	B: 2.3	C: 4.9	D: i	E: 19.5	F: 27.4	G: -1.7	H: .
smiles: CCC1Oc2ccccc2N(CC(=O)NC2CCCCC2)C1=O (stereo not given)
  A: 0.2	B: 3.4	C: -3.7	D: i	E: -11.9	F: -1.2	G: -3.3	H: 7.1
smiles: N#Cc1nc(COc2ccc(F)cc2)oc1N1CCCC1
  A: -6.1	B: -5.2	C: 8.8	D: i	E: -27.4	F: 2.2	G: -4.1	H: 10.3
smiles: Cc1ccc(N(C(=O)CCC(=O)Nc2cc(C)on2)C(C(=O)NC2CCCC2)c2ccncc2)cc1 (stereo not given)
  A: 1.3	B: 1.1	C: -4.0	D: i	E: -48.3	F: 10.0	G: -3.7	H: -8.8
smiles: CC(Oc1ccccc1)C(=O)NCc1cccnc1 (stereo not given)
  A: 1.8	B: 2.0	C: 2.6	D: i	E: .	F: -11.9	G: 3.5	H: 19.6
smiles: Cc1cccc(NS(=O)(=O)c2cccc3nonc23)c1
  A: -5.3	B: -0.9	C: 2.9	D: i	E: .	F: .	G: -4.4	H: 0.2
smiles: Cc1cccc(NC(=O)CSc2nnc(CNC(=O)c3cccs3)o2)c1C
  A: 2.9	B: 3.4	C: -13.1	D: i	E: -15.6	F: 8.2	G: 3.2	H: -15.7
smiles: CC1CN(C(c2ccco2)c2sc3ncnn3c2O)CC(C)O1 (stereo not given)
  A: 1.6	B: 2.8	C: 25.4	D: i	E: 7.1	F: 1.6	G: 26.0	H: -11.7
smiles: O=c1onc(-c2ccccc2)n1Cc1ccc([N+](=O)[O-])cc1
  A: 3.9	B: -1.1	C: .	D: .	E: 31.0	F: -21.5	G: .	H: .
smiles: Cc1cc(NS(=O)(=O)c2cc(Cl)sc2Cl)no1
  A: -5.0	B: 4.3	C: -7.0	D: i	E: 5.6	F: -8.4	G: -4.3	H: -8.5
smiles: COc1ccc(C2CC(C(F)(F)F)n3ncc(C(=O)Nc4c(C)n(C)n(-c5ccccc5)c4=O)c3N2)cc1 (stereo not given)
  A: -0.8	B: -1.2	C: -0.9	D: i	E: 1.1	F: -13.7	G: -3.1	H: 1.6
smiles: Cc1cccc(C)c1NC(=O)c1ccc(-n2cncn2)nc1
  A: -2.9	B: 0.9	C: -5.9	D: i	E: .	F: -3.5	G: -0.1	H: -4.9

Exported with values under each structure: part of the list above.
Below each SMILES – MT1-MMP act inh, MT1-MMP act inh RFP, PABP polyA inh, Rce1 inh, Env fusion inh, Yeast UUG start, eIF4H FP inh, CSC inhib
Cc1cccc(NC(=O)CSc2nnc(CNC(=O)c3cccs3)o2)c1C
  2.9, 3.4, -13.1, i, -15.6, 8.2, 3.2, -15.7
CC1CN(C(c2ccco2)c2sc3ncnn3c2O)CC(C)O1 (stereo not given)
  1.6, 2.8, 25.4, i, 7.1, 1.6, 26.0, -11.7
O=c1onc(-c2ccccc2)n1Cc1ccc([N+](=O)[O-])cc1
  3.9, -1.1, ., ., 31.0, -21.5, ., .
Cc1cc(NS(=O)(=O)c2cc(Cl)sc2Cl)no1
  -5.0, 4.3, -7.0, i, 5.6, -8.4, -4.3, -8.5

Sorted by length of the SMILES (ascending): some entries from above
Short forms: A = MT1-MMP act inh; B = MT1-MMP act inh RFP; C = PABP polyA inh; D = Rce1 inh; E = Env fusion inh; F = Yeast UUG start; G = eIF4H FP inh; H = CSC inhib
smiles: Cc1cc(NS(=O)(=O)c2cc(Cl)sc2Cl)no1
  A: -5.0	B: 4.3	C: -7.0	D: i	E: 5.6	F: -8.4	G: -4.3	H: -8.5
smiles: Cc1cccc(C)c1NC(=O)c1ccc(-n2cncn2)nc1
  A: -2.9	B: 0.9	C: -5.9	D: i	E: .	F: -3.5	G: -0.1	H: -4.9
smiles: COc1ccc(C2CC(C(F)(F)F)n3ncc(C(=O)Nc4c(C)n(C)n(-c5ccccc5)c4=O)c3N2)cc1 (stereo not given)
  A: -0.8	B: -1.2	C: -0.9	D: i	E: 1.1	F: -13.7	G: -3.1	H: 1.6

Screening data (PubChem)
